Sa growth inh: S. aureus growth inhibition; relative growth, % (test concentration not listed); S. aureus RN4220 growth, OD600, 20 h, 42 °C; stronger effect = lower value; actives 0.53% (n = 170,000);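 active means growth at 42 °C up to 50% and 20 or more points under that at 30 °C, or under 10% at both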;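 further: 300 nL library stock went into each well; scaled to the means of positive and negative controls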
GIV Gai3 FP: blocks GIV peptide binding to rat Galpha-i3; percent of control (FP), % (concentration not given with the values); P08753; Galpha-i3/FITC-GIV peptide fluorescence polarization, 90 min; stronger effect = lower value; scaled: aluminum fluoride 0%, vehicle 100%; AID 1224905; actives 0.42% (n = 210,000);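 active means replicate mean at 85% of control or lower, very high polarization wells dropped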;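 further: wells of about 15 µL received 100 nL stock; the first replicate is given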
Target sequence (P08753 whole entry, looked up): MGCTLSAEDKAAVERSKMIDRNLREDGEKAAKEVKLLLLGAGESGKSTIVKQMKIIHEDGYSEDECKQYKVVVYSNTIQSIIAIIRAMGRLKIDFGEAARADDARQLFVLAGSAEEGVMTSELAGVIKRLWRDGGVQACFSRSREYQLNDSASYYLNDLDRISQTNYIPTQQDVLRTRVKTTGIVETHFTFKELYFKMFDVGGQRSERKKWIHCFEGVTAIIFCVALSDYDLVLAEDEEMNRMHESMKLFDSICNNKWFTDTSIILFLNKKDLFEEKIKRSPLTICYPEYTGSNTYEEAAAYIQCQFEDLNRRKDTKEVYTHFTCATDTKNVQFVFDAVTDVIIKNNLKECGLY
HCMV NEC inh: cytomegalovirus nuclear egress complex inhibition; actives 0.15% (n = 190,000); AID 1918969; HTRF UL50-UL53 interaction, normalized percent inhibition; inhibition, % (no concentration beside the values);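 active means both replicates at 50% or more, plus weaker picks with an unusually low signal ratio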;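 further: stock transfer was 100 nL into about 20 µL; 0% = negative control wells and 100% = wells with untagged competitor protein; inactives centre near -12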
Sa growth inh second temp: further read-out of Sa growth inh, marked with its call; relative growth, %; measured here: growth at 30 °C;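 optical density after 20 h as mean of two plates; 100% = untreated growth and lower means inhibition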
Active calls of the source: *; / = no result given; & = joins results of further samples.

Molecule	Sa growth inh	Sa growth inh second temp	GIV Gai3 FP	HCMV NEC inh
OC(COc1ccc(C(F)(F)F)cn1)CSc1ccc(C(F)(F)F)cn1 (stereo not given)	79.8	78.4	96.1	-17.6
COc1ccc(OC)c(Nc2ncnc3c2nc2n3CCCC2)c1	135.1	91.5	101.4	/
CC(C)(C)CC(C)(C)NS(=O)(=O)c1ccc(F)cc1	117.0	94.4	107.3	-10.7
NC(=O)c1c(NC(=O)CN2C(=O)c3ccccc3S2(=O)=O)sc2c1CCCC2	/	/	100.6	-9.6
NC(=O)CSc1nc2c(c(=O)n1CCc1ccccc1)SCC2	98.8	90.1	104.6	-35.7
CCCN(CCC)S(=O)(=O)c1ccc(N2CCCCS2(=O)=O)cc1	91.9	86.9	97.8	/
COc1cc(C2C(C#N)=C(N)Oc3n[nH]c(-c4ccc5c(c4)OCO5)c32)cc(OC)c1OC (stereo not given)	/	/	101.2	5.0
CCCOc1ccc(C(=O)Nc2cccc(-c3nc4ccccc4[nH]3)c2C)cc1	/	/	102.6	-18.8
CCN(CC)C(=O)Cn1cc(SCC(=O)Nc2ccccc2C)c2ccccc21	95.3	90.4	99.3	/
CCC(=O)Nc1ccc2c(c1)nc(Cn1nc(C)cc1C)n2CC	/	/	99.1	-20.3
CC(=O)c1ccc(NS(=O)(=O)c2cnc(N)nc2)cc1	90.7	97.2	110.1	/
O=C(c1cnn(C(=O)CCN2CCN(c3ccccc3)CC2)c1)c1ccccc1O	100.9	90.3	/	-11.3

The closing six entries of the section above open the next one.
Molecule	Sa growth inh	Sa growth inh second temp	GIV Gai3 FP	HCMV NEC inh
COc1cc(C2C(C#N)=C(N)Oc3n[nH]c(-c4ccc5c(c4)OCO5)c32)cc(OC)c1OC (stereo not given)	/	/	101.2	5.0
CCCOc1ccc(C(=O)Nc2cccc(-c3nc4ccccc4[nH]3)c2C)cc1	/	/	102.6	-18.8
CCN(CC)C(=O)Cn1cc(SCC(=O)Nc2ccccc2C)c2ccccc21	95.3	90.4	99.3	/
CCC(=O)Nc1ccc2c(c1)nc(Cn1nc(C)cc1C)n2CC	/	/	99.1	-20.3
CC(=O)c1ccc(NS(=O)(=O)c2cnc(N)nc2)cc1	90.7	97.2	110.1	/
O=C(c1cnn(C(=O)CCN2CCN(c3ccccc3)CC2)c1)c1ccccc1O	100.9	90.3	/	-11.3
O=C1NC(=O)C(Nc2cccc3ccccc23)S1 (stereo not given)	107.4	50.3	93.8	-4.4
CC(C)(C)NS(=O)(=O)c1cccc2nsnc12	105.6	83.1	95.4	/
O=C(COc1ccc(Br)cc1)NCC1(N2CCOCC2)CCCCC1	/	/	101.5	-15.4
CCCOc1ccc(OC(=O)c2c(-c3ccccc3Cl)noc2C)cc1	116.7	90.7	106.2	/
O=C(Nc1cccc(F)c1)c1cc(S(=O)(=O)N2CCCCC2)ccc1F	90.0	89.6	104.4	/
Cc1ccccc1C1CC(=O)c2cnc(N)nc2C1 (stereo not given)	/	/	99.5	-25.4
Cc1ccc(OCC(=O)Nc2nc(-c3ccc(Br)cc3)ns2)cc1	98.1	88.8	101.0	-25.7
Nc1nc(NC(=O)CCC(=O)O)nn1-c1ccccc1	96.0	103.1	98.4	-12.2
CCc1ccc(C(=O)NCCc2nnc(SC)n2CC)cc1	95.3	93.9	103.4	5.6
CCCNC(=O)C(C)N1Cc2ccccc2C1=O (stereo not given)	100.0	93.2	104.4	-14.9
Cn1cnnc1SCC(=O)Nc1ccccc1C(=O)Nc1ccc2c(c1)OCO2	96.9	96.1	/	-5.2
Cc1cc2n(n1)CCCN2C(=O)Nc1ccc(C)c(Cl)c1	98.3	93.0	101.5&106.2	-21.2&-22.9
Cc1ccc(SCC(=O)NC(=O)C(C)C)cc1C	105.5	88.1	/	-5.8
COc1nc(C)nc(/N=C\NO)n1	85.6	87.9	103.8	-40.9
C=CCNC(=O)C1C2C=CC(C2)C1C(=O)OC(C)C (stereo not given)	106.5	82.9	/	-4.9
Cc1cc(C)cc(Oc2ccc(C#N)c(C#N)c2)c1	78.5	89.5	/	-16.0
COc1nc(OC)nc(N2CCN(c3cc(C)ccc3C)CC2)n1	91.7	89.8	99.0	-12.3
CN(C)c1oc(-c2ccc(S(=O)(=O)N3CCCCC3)cc2)nc1C#N	/	/	99.0	-22.6
Cc1ccc(NC(=O)c2c(C)oc3ncnc(N4CCCCC4)c23)c(C)c1	113.2	101.1	104.6	/
O=C(Cn1cnc2c(oc3ccccc32)c1=O)OCc1cc(F)cc2c1OC(c1ccsc1)OC2 (stereo not given)	69.9	73.1	/	-25.0
CC1CCCCC1NC(=O)COn1nnc2ccc(Cl)cc21 (stereo not given)	93.0	91.9	/	-1.7
CC(C)Cc1ccc(S(=O)(=O)Nc2cc3c(cc2N2CCOCC2)n(C)c(=O)c(=O)n3C)cc1	109.9	86.2	100.1	/
Cc1cccc(NC(=O)c2ccc(-c3ccccc3)s2)c1	102.8	88.0	103.2	-3.9
Cc1ccc(-c2csc(NC(=O)C(C)C)c2C(=O)O)cc1	188.4	83.9	/	-9.5
Cc1cc2nc(-c3cccc(NC(=O)c4cc([N+](=O)[O-])ccc4Br)c3)oc2cc1C	/	/	103.0	-32.5
Cc1cc(C)n(CCCNc2nc(-c3cccnc3)nc3ccccc23)n1	99.9	90.2	/	7.8
Cc1ccc(C)c(OCCn2cc(/C=C3\C(=N)N4N=C(S(C)(=O)=O)SC4=NC3=O)c3ccccc32)c1	95.9	77.5	100.1	-18.7
O=C(Nc1ccc(N2CCn3c(nc4cc(Cl)ccc43)C2)cc1)C1CCCCC1	/	/	95.0	-6.6
Cc1ccc(CNCc2c(C(=O)O)n(Cc3ccccc3C)c3cc(C)ccc23)cc1	110.8	95.8	111.1	/
COc1ccc(-c2nnc(SCC(=O)Nc3ccc(C)c(Cl)c3)nc2-c2ccc(OC)c(OC)c2)cc1OC	108.5	79.9	105.0	/
Cn1c(=O)c(-c2noc(C(=O)N3CCc4ccccc4C3)n2)nn(-c2ccccc2)c1=O	/	/	100.1	-124.4
CC(Cc1c[nH]c2ccccc12)NC(N)=O (stereo not given)	105.2	95.2	105.4	/
COc1ccc(S(=O)(=O)N2CCCC(C(=O)NC(C)C)C2)cc1OC (stereo not given)	97.6	96.1	102.4	-0.3
c1cc2c(cc1CNc1nc3nonc3nc1NCc1ccc3c(c1)OCO3)OCO2	/	/	106.9	-2.5
CCc1nnc(NC(=O)c2nc(-c3ccc(Cl)cc3)n3c2CCCCC3)s1	94.2	84.3	99.9	/
COC(=O)c1cc(=O)c2cc(NC(=O)c3ccc(OC(F)(F)F)cc3)ccc2[nH]1	100.0	86.8	99.2	-29.6
CC(C)N1CCCC(C(=O)N2CCCCCC2)C1 (stereo not given)	94.0	80.6	103.7	-24.5
CCOC(=O)C1=C(Cn2ccc(C(F)(F)F)n2)NC(=O)NC1c1cc(C)ccc1C (stereo not given)	85.4	96.5	105.8	-14.8
CS(=O)(=O)N1CCC(n2c(C(F)(F)F)nc3cccnc32)CC1	84.4	86.6	105.6	/
O=C(NCc1ccccc1)c1c2c(nc3ccccc13)C(=O)N(C1CCCCC1)C2	90.2	86.4	97.8	/
CC1(C)CC(NC(=O)N2c3ccccc3CCc3ccccc32)CC(C)(C)N1	80.1	95.4	/	-4.7
COc1ccc(/C=C2\C(=O)N(c3ccc(Cl)cc3)C(c3ccc(F)cc3)S2(=O)=O)c(OC)c1 (stereo not given)	98.7	91.6	/	-20.4
Cc1nc2ccc(S(=O)(=O)CCC(=O)NCc3ccc(Cl)cc3)cc2s1	/	/	100.9	8.1
CC(C)C(NS(=O)(=O)c1ccc2c(c1)Cc1cc(S(=O)(=O)NC(C(=O)O)C(C)C)ccc1-2)C(=O)O (stereo not given)	90.7	89.0	88.1	-15.6
N#Cc1ccsc1NC(=O)COC(=O)/C=C/c1cn(Cc2ccccc2)nc1-c1cccs1	92.8	89.0	/	-22.5
C=CCN(Cc1cccs1)C(=O)Cn1c(=O)cnc2ccccc21	102.0	94.6	/	-64.5
Cc1[nH]c(C)c(S(=O)(=O)N2CCN(c3ccccn3)CC2)c1C(=O)N1CCCCC1	/	/	107.2	8.0
CC(=O)N/C(=C/c1ccc2c(c1)OCO2)C(=O)O	101.2	101.2	139.7	-10.7
Cc1ccc(S(=O)(=O)N2CCC(C(=O)N/N=C/c3ccccn3)CC2)cc1	92.5	74.5	105.9	-25.2
Cn1c(Sc2nc3ccc(Cl)cc3s2)nnc1-c1cccs1	107.5	89.0	102.3	-9.7
Cc1nc(N)sc1Cc1ccc(O)cc1	106.1	84.3	107.4	-4.3
Cc1nn(-c2ccccc2)nc1-c1nnc(-c2ccc(Cl)c(Cl)c2)o1	102.9	95.1	98.4	1.5
O=C(c1ccccc1)C(C(=O)c1ccccc1)C(=O)c1ccccc1	95.2	88.4	105.9	1.0
COc1ccc(Cl)cc1N=Cc1sccc1C	102.2	85.2	/	-28.3
O=C(/C=C/NCc1ccccc1)c1cccs1	99.7	96.3	106.5	-43.9
Cc1csc(NC(=O)CSc2nc(C34CC5CC(CC(C5)C3)C4)ccc2C#N)n1	94.1	103.0	/	6.4
CCOC(=O)c1c(C)[nH]c(C(=O)N2CCCC(C(=O)NCCCN3CCOCC3)C2)c1C (stereo not given)	/	/	104.3	-17.0
COC(=O)c1sccc1NC(=O)c1cc2c([nH]c1=O)CC(c1ccc(OC)cc1)CC2=O (stereo not given)	/	/	89.6	-10.1
Cc1nc(C(F)(F)F)nc(NNC(=O)Nc2ccccc2)c1C	91.7	95.2	96.8	-7.0
Cc1cccc(N2CCN(C(=O)c3cn(C)c4ccc(S(=O)(=O)N(C)C)cc4c3=O)CC2C)c1 (stereo not given)	113.4	92.8	102.5	0.0

The list goes on:
Molecule	Sa growth inh	Sa growth inh second temp	GIV Gai3 FP	HCMV NEC inh
Cc1nc(CCNC(=O)CC2CCCCC2)cs1	103.1	100.3	109.0	-8.2
Cc1ccc(-n2ncc3c(NCCCN4CCOCC4)ncnc32)cc1C	92.8	85.5	105.9	/
Cc1cccc(N2CCN(c3nc4ccc(C)cc4n4cnnc34)CC2C)c1 (stereo not given)	106.3	88.3	106.8	-34.7
Cc1nnc(N2C(=O)c3oc4ccccc4c(=O)c3C2c2ccc(F)cc2)s1 (stereo not given)	92.7	91.8	101.9	-83.9
NC(=O)COC(=O)C(c1ccccc1)c1ccccc1	95.0	81.7	99.1	-29.4
Cc1ccccc1C(=O)N/N=C1/SCC(=O)N1Cc1ccc2c(c1)OCO2	76.5	105.9	96.5	7.3
COc1ccc(N2CCN(C(=O)C3CCN(S(=O)(=O)Cc4ccccc4)CC3)CC2)cc1	106.5	84.4	105.5	-29.8
Cc1c(CO)[nH]c2ccc(Cl)cc12	98.0	85.4	102.3	/
CCOc1ccc(-c2cc(CCCC(=O)NCc3cccc(OC)c3)no2)cc1	102.9	85.8	100.9	-24.2
O=C1C2C3c4ccccc4C(c4ccccc43)C2C(=O)N1Cc1ccco1 (stereo not given)	99.0	108.2	106.2	-5.8
COc1ccc2ccccc2c1CN1CCN(C(=O)c2ccccc2F)CC1	101.5	88.8	93.4	-30.7
Clc1cccc2nc3n(c12)CCN(C1CCCCC1)C3	/	/	97.5	-29.3
COc1ccc(OC)c(/C=C2\Sc3ccccc3NC2=O)c1	112.4	92.6	111.7	-2.8
COc1cccc(C(=O)N2CCc3c([nH]c4ccc(OC)cc34)C2c2ccc(F)cc2)c1 (stereo not given)	/	/	102.4	-28.8
Clc1ccc(-c2noc(-c3cccnc3N3CCN(c4ccccc4)CC3)n2)cc1	100.0	85.8	100.7	-29.9
Cc1cccc(Cn2nnc3c(=O)[nH]c(C4CCCN(C(=O)c5ccccc5Cl)C4)nc32)c1 (stereo not given)	92.8	91.1	100.0	-6.3
O=C(c1ccc2c(c1)OCCO2)N(Cc1cccnc1)c1nc2c(F)cc(F)cc2s1	77.5	73.1	104.1	/
O=C(O)C1CCCN(C(=O)c2cccc3ccccc23)C1 (stereo not given)	102.0	95.8	/	-4.5
COc1ccc(CNC(=O)CN2C(=O)CCCc3ccccc32)cc1	106.3	92.9	104.2	/
CCCCN(C)CCNC(=O)Cn1ncc2c3ccccc3n(CCC)c2c1=O	86.8	96.3	102.0	/
CCN(C(=O)/C=C/c1ccc(C(F)(F)F)cc1)C1CCS(=O)(=O)C1 (stereo not given)	79.1	93.8	/	-26.2
Fc1ccccc1-c1nnc2ccc(C(F)(F)F)cn12	93.7	86.1	/	56.9*
Cc1ccc(C(=O)CSc2ncn(-c3ccccc3)n2)c(C)c1	106.8	77.0	109.8	-7.1
NS(=O)(=O)c1ccc(Nc2nc(-c3ccccc3)c3cc(Cl)ccc3n2)cc1	/	/	103.0	-8.0
Cc1ccc(C)c(Nc2nc(C(N)=O)c(NC(=O)c3ccc(C)nc3Cl)s2)c1	/	/	101.0	-22.1
CCN(CC)C(=O)CCn1cnc2oc(C)c(C)c2c1=O	/	/	101.1	-26.8
